Bioassay records from PubChem.
Mtb hypoxia rep: inhibitors of hypoxia-regulated fluorescent reporter in Mycobacterium tuberculosis | M. tuberculosis hypoxia-regulated fluorescent reporter, fluorescence | fluorescence inhibition, % (test concentration not listed) | 300,000 tested, 0.1% active | AID 1159583;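 active = 35 to 45% if threefold the growth effect, above 45% if 1.5-fold the growth effect; inactive = the rest, general growth blockers included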;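 note: wells of about 50 µL received 100 nL stock; 0% = vehicle wells and 100% = reference inhibitor wells; whole bacteria with a GFP reporter of the hypoxia response; strong numbers were not always called active; many hits fall short of the cut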
Autofluor counter: flagged as autofluorescent in microsphere protease counterscreen; fluorescence intensity (test concentration not listed); AID 624483; 360,000 tested, 3.1% active; compound autofluorescence counterscreen, microsphere flow cytometry; active compounds read high;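 active = at least 3 SD above the mean of all compounds, about 16000 in these data; inconclusive = too few beads counted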;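 note: 100 nL of 1 mM stock went into each well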
Sa RN4220 lethal: kills Staphylococcus aureus RN4220; S. aureus RN4220 growth, OD600, 16 h; inhibition, % (no concentration beside the values); 330,000 tested, 0.33% active;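 active = z-score of -3 or lower and OD600 up to 0.18 on both plates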;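 note: plate controls were untreated cells for no effect and reference antibiotic for full effect; stock transfer was 100 nL into about 80 µL; one replicate is shown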
PrP 5UTR inh: suppresses PrP 5' UTR mRNA reporter expression; cell-based PrP 5' UTR mRNA reporter, plate reader; 340,000 tested, 0.35% active; inhibition, % (concentration not given with the values);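 active = every replicate at 50% or more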;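 note: 0 = median of the neutral control wells; tested in H4 reporter cells; numbers are from one replicate; inactives centre near -14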
Sa ugtP lethal: compounds lethal to S. aureus RN4220 ugtP deletion mutant; OD600 growth, 16 h; some inactives read as strong as hits; 330,000 tested, 0.54% active; growth inhibition, % (no concentration beside the values); AID 1259309;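 active = z-score under -3 and OD600 up to 0.15 on both plates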;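 note: plate controls were untreated wells for no effect and antibiotic for full effect; wells of about 80 µL received 100 nL stock; the first replicate is given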
BJeLR viability: kills HRASV12-expressing BJeLR cells. BJeLR (HRASV12) viability, CellTiter-Glo ATP luminescence, 48 h; reference of the scale not given here. 300,000 tested, 0.17% active. AID 1554. inhibition, % (no concentration beside the values);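 active = replicate mean above 50%; inconclusive = above 50% but judged a plate artefact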;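 note: 50 nL library stock added to about 25 µL; numbers are from one replicate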
Mtb hypoxia rep growth: further read-out of Mtb hypoxia rep, marked with its call; growth inhibition, %; measured here: M. tuberculosis growth (absorbance);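 0% = vehicle and 100% = reference antibiotic; read after six days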
* hit, by the source's call; ? = inconclusive; nt = not tested or not shown.

SMILES	Mtb hypoxia rep	Mtb hypoxia rep growth	Autofluor counter	Sa RN4220 lethal	PrP 5UTR inh	Sa ugtP lethal	BJeLR viability
COc1ccc(S(=O)(=O)N2CCCC(C(=O)N3CCOCC3)C2)cc1OC (stereo not given)	7.7	8.1	3773	4.1	-14.0	1.3	-5.0
Cc1nc2cc(C(=O)NCc3cccnc3)ccc2n1-c1ccc(F)cc1F	-2.4	6.5	2457	3.9	-15.5	-1.8	3.1
COC(=O)CCNC(=O)c1ccc2nc(Cc3ccc(OC)c(OC)c3)oc2c1	2.0	5.5	4126	2.6	-38.4	8.3	-11.6
O=C(COC(=O)c1ccc(S(=O)(=O)N2CCCC2)cc1)NCc1ccco1	-3.5	-11.2	4813	2.5	11.4	4.1	5.7
O=C(c1ccc(S(=O)(=O)N2CCOCC2)cc1)N1CCCc2ccccc21	8.7	2.8	17398*	4.7	-11.6	4.5	3.3
COc1ccccc1N(CC(=O)NC1CCCCC1)S(=O)(=O)c1cccs1	7.4	-3.1	4931	4.3	-30.5	2.6	-25.6
CC(=O)C(Sc1ccc2nnc(-c3cccnc3)n2n1)C(C)=O	13.2	-5.6	2108	4.4	-43.9	15.3	-0.2
C=CCNC(=O)C1CC(=O)N(c2ccc(Br)cc2)C1 (stereo not given)	nt	nt	5176	0.9	-10.8	1.0	-15.2
Cc1cccc(NC(=O)CN2C(=O)N/C(=C/c3ccc(C)s3)C2=O)c1	2.0	6.5	2510	6.2	-19.9	-13.1	-3.6
CC(=O)N1CCC(N2CCN(Cc3ccc(C)cc3)C(CCO)C2)CC1 (stereo not given)	9.0	2.9	3751	1.3	-20.3	2.0	2.0
O=c1[nH]c(S)c(/C=C2\C=Nc3ccccc32)s1	4.7	5.0	nt	1.9	nt	-13.9	4.8
CC(C)n1nnnc1SCC(=O)Nc1ccc2c(c1)OCO2	1.3	-3.1	4230	3.6	-24.6	1.6	-0.7
Cc1ccc(-n2c([S-])c(C(=O)Nc3ccc(OC(F)F)cc3)[n+]3ccc(C(=O)NCCO)cc23)cc1C	-13.1	-7.6	4775	-6.6	78.2*	-13.4	-0.5
CC(C)c1ccc(CN2CCSCC2)cc1	15.2	1.3	3289	4.2	-17.1	-4.3	6.8
Cn1c(COc2ccccc2)nnc1SCC(=O)c1cccc([N+](=O)[O-])c1	10.7	11.2	8856	0.2	-27.7	1.1	-0.6
CCCCCOC(=O)C1=C(C)Nc2nnnn2C1c1ccc(OC)c(OC)c1OC (stereo not given)	-9.0	0.5	21211*	2.5	-22.6	-7.7	-6.1
Cc1cc(C)cc(OCc2ccc(C(=O)NC3CCOC3=O)o2)c1 (stereo not given)	9.8	4.4	4146	0.7	-28.5	1.5	8.9
CCCn1nnnc1NCc1ccc(C(C)C)cc1	10.9	12.8	3627	2.3	-15.8	14.0	-1.0
O=C(CSc1nc(-c2ccccc2)c(-c2ccccc2)o1)Nc1nncs1	6.8	1.2	3214	0.0	-16.6	23.1	6.1
COc1cccc(/C=C/C(=O)OCC(=O)N2CCN(c3ccccc3)CC2)c1	6.8	1.1	nt	1.1	-13.6	0.3	nt

7 compounds from above, arranged by heavy-atom count, largest number first.
SMILES	Mtb hypoxia rep	Mtb hypoxia rep growth	Autofluor counter	Sa RN4220 lethal	PrP 5UTR inh	Sa ugtP lethal	BJeLR viability
CCCCCOC(=O)C1=C(C)Nc2nnnn2C1c1ccc(OC)c(OC)c1OC (stereo not given)	-9.0	0.5	21211*	2.5	-22.6	-7.7	-6.1
COc1ccc(S(=O)(=O)N2CCCC(C(=O)N3CCOCC3)C2)cc1OC (stereo not given)	7.7	8.1	3773	4.1	-14.0	1.3	-5.0
CC(=O)N1CCC(N2CCN(Cc3ccc(C)cc3)C(CCO)C2)CC1 (stereo not given)	9.0	2.9	3751	1.3	-20.3	2.0	2.0
CC(C)n1nnnc1SCC(=O)Nc1ccc2c(c1)OCO2	1.3	-3.1	4230	3.6	-24.6	1.6	-0.7
CCCn1nnnc1NCc1ccc(C(C)C)cc1	10.9	12.8	3627	2.3	-15.8	14.0	-1.0
O=c1[nH]c(S)c(/C=C2\C=Nc3ccccc32)s1	4.7	5.0	nt	1.9	nt	-13.9	4.8
CC(C)c1ccc(CN2CCSCC2)cc1	15.2	1.3	3289	4.2	-17.1	-4.3	6.8

(more compounds)
SMILES	Mtb hypoxia rep	Mtb hypoxia rep growth	Autofluor counter	Sa RN4220 lethal	PrP 5UTR inh	Sa ugtP lethal	BJeLR viability
CCCc1[nH]nc2c1C(c1cccc(OC)c1)C(C#N)=C(N)O2 (stereo not given)	-1.6	5.5	nt	-5.9	-4.3	12.2	8.4
COc1cc(CNCCNC(=O)c2cccs2)cc(OC)c1OC	13.2	3.9	4553	5.2	-18.8	7.8	5.3
Brc1ccccc1-n1nnc(-c2ccnc3ccccc23)n1	1.8	-2.8	2893	-5.3	-24.7	-5.1	-2.4
CCN1C(=O)[C@H]2[C@H]3CN=C(SCC(=O)c4ccccc4)N3[C@@](CC)(C(=O)OC)[C@H]2C1=O	1.2	4.3	3777	1.0	-11.2	6.0	nt
CCCCCCC(=O)N/N=C/c1c(O)n(CCc2ccccc2)c(=O)[nH]c1=O	-4.9	2.5	4178	7.4	4.5	6.6	-8.9
CCOc1ccc2oc(C(=O)N(CC)CC(=O)Nc3ccc(NC(C)=O)cc3)c(C)c2c1	5.2	0.6	3949	4.7	4.1	8.5	nt
COc1cc(NC(=S)NC(C)(C)C)c(OC)cc1Cl	nt	nt	6368	nt	-25.0	nt	-7.6
Cc1ccc(S(=O)(=O)NC(=O)c2cc(C)n(-c3ccccc3)c2C)cc1	8.9	9.0	2099	3.1	-27.7	3.6	5.2
O=C(NC1CCCCC1)c1ccc(Br)o1	nt	nt	4503	4.5	-0.1	-2.0	-1.0
COc1cc(N/N=C/c2ccc(N(C)C)cc2)ncn1	nt	nt	4268	nt	3.2	nt	6.8
CCN(CC(=O)Nc1c(F)cccc1F)C(=O)c1cnccn1	12.1	7.5	?	0.4	-17.3	2.9	-4.8
CCCCNCCOCCOc1ccc(C)cc1[N+](=O)[O-]	10.5	6.2	?	5.2	-19.3	2.6	-0.9
CCCCOc1c(Br)cc(CNCCCN2CCOCC2)cc1OC	19.2	12.3	3017	2.4	-11.6	2.1	20.1
O=C1C2CCCN2C(c2cccnc2)N1c1ccc(Cl)cc1 (stereo not given)	2.2	9.3	4419	-1.2	-8.6	-3.9	-8.2
CCc1ccccc1OCC(=O)OCC(=O)N1CC(=O)Nc2ccccc21	10.3	11.6	3363	1.1	-22.5	7.7	8.6
Nc1nnc(-c2ccc(Cl)cc2)o1	8.5	5.2	4512	2.0	-16.6	1.1	-5.2
N#Cc1ccccc1N=Cc1ccc(Br)cc1	6.2	7.9	2221	1.5	-15.4	4.3	12.0
COC(=O)Cc1[nH]n(-c2nc3ccccc3s2)c(=O)c1C(C)=Nc1ccc(Cl)cc1	11.8	7.8	4922	10.3	90.6*	-4.3	2.7
CCCCNC(=S)N/N=C/C1=CCC2CC1C2(C)C (stereo not given)	nt	nt	8722	nt	-18.9	nt	-13.7
O=C(Cc1ccccc1)NN=Cc1ccc(Br)o1	2.5	7.0	nt	2.2	nt	-2.8	nt

Single entries from above.
CCCCNC(=S)N/N=C/C1=CCC2CC1C2(C)C (stereo not given) – BJeLR viability: -13.7
COc1cc(CNCCNC(=O)c2cccs2)cc(OC)c1OC – BJeLR viability: 5.3
COC(=O)Cc1[nH]n(-c2nc3ccccc3s2)c(=O)c1C(C)=Nc1ccc(Cl)cc1 – BJeLR viability: 2.7

(further entries)
SMILES	Mtb hypoxia rep	Mtb hypoxia rep growth	Autofluor counter	Sa RN4220 lethal	PrP 5UTR inh	Sa ugtP lethal	BJeLR viability
COc1ccc(Cc2nc3ccc(C(=O)N4CCOCC4)cc3o2)cc1	4.7	9.3	5653	-1.5	-85.7	1.2	9.6
O=C(Nc1nnc(-c2ccc3c(c2)CCCC3)o1)C1COc2ccccc2O1 (stereo not given)	-5.8	6.6	5761	55.1	-7.2	60.6	-0.7
COc1ccc(NC(=O)CN(C)C(C)C(=O)NC(=O)NC2CCCCC2)cc1 (stereo not given)	8.8	-1.5	4563	2.7	20.4	9.1	5.5
CCC(C)NC(=O)Cn1cccc1C(=O)c1ccccc1 (stereo not given)	6.4	9.5	2470	3.1	-16.9	2.8	-0.2
Cc1cccc2c3c([nH]c12)CCN(C)C3	14.3	7.1	3938	-0.9	-5.9	0.1	2.5
CC(C)(C)NC(=O)CSc1nnc(-c2ccccc2)c(-c2ccccc2)n1	8.1	1.6	3959	1.4	-14.4	14.4	6.1
CN(C)S(=O)(=O)c1ccc(C(=O)Nc2ccccc2OC(F)(F)C(F)F)cc1	1.4	-0.5	15505	1.1	-1.5	2.5	-5.7
O=C1NC[C@@H](Cc2cccc3ccccc23)N(CCCCC2CCCCC2)C1=O	nt	nt	3824	nt	2.0	nt	-6.6
CCOC(=O)N1CCN(c2nc(-c3ccco3)cc(C(F)(F)F)n2)CC1	1.3	1.7	8698	1.5	-9.2	-10.2	7.4
CN(C)/C=N/c1ncc(C(=O)OC(C)(C)C)s1	nt	nt	4181	nt	-43.4	nt	5.3
COc1ccccc1C(=O)NCCC(=O)N1CCN(C(=O)c2ccco2)CC1	5.5	1.0	?	6.0	-12.2	18.0	nt
COc1cc(CNC(C)c2ccccc2)cc(Br)c1OCc1ccc(F)cc1 (stereo not given)	3.5	6.5	3265	-7.5	-1.5	-6.5	-1.9
Cc1ccc(NC(=O)CC(NCC2CCCO2)C(=O)O)cc1C (stereo not given)	6.3	11.9	4521	2.9	-11.4	-6.5	-1.1
O=C(CSc1nnc2ccccn12)NNC(=O)c1ccc(Cl)cc1	nt	nt	3429	nt	-21.0	nt	18.4
CCCn1c(SCC(=O)c2ccc3c(c2)OCCO3)nc2c1c(=O)n(C)c(=O)n2C	6.5	9.8	5188	5.0	-5.4	-1.4	6.5
CCNc1nc(N)nc(Oc2ccc(OCCOc3ccc(Cl)cc3Cl)nn2)n1	8.4	9.8	5236	5.8	-30.2	-12.1	-7.6
C=CCOc1ccc(Br)cc1/C=C1/SC(=Nc2ccc(C(=O)O)cc2)NC1=O	10.1	6.3	4181	54.0	-8.1	23.7	nt
CCN(CCCc1ccccc1)CCCc1ccccc1	12.0	6.8	4244	9.4	-11.1	3.6	-0.6
O=C(COC(=O)/C=C/c1ccccc1[N+](=O)[O-])NCC(F)(F)F	11.2	4.2	3315	1.1	-34.1	-2.0	1.8
Cc1c(Cl)cccc1NC(=O)NCc1ccncc1	15.3	7.8	2661	4.1	11.2	-2.0	-3.1

Two records picked at random from the list so far:
SMILES	Mtb hypoxia rep	Mtb hypoxia rep growth	Autofluor counter	Sa RN4220 lethal	PrP 5UTR inh	Sa ugtP lethal	BJeLR viability
O=C(COC(=O)/C=C/c1ccccc1[N+](=O)[O-])NCC(F)(F)F	11.2	4.2	3315	1.1	-34.1	-2.0	1.8
COC(=O)Cc1[nH]n(-c2nc3ccccc3s2)c(=O)c1C(C)=Nc1ccc(Cl)cc1	11.8	7.8	4922	10.3	90.6*	-4.3	2.7

Compound profiles, from the list above. Order of screens: Mtb hypoxia rep | Mtb hypoxia rep growth | Autofluor counter | Sa RN4220 lethal | PrP 5UTR inh | Sa ugtP lethal | BJeLR viability
O=C1NC[C@@H](Cc2cccc3ccccc23)N(CCCCC2CCCCC2)C1=O across the screens: nt | nt | 3824 | nt | 2.0 | nt | -6.6
Cc1c(Cl)cccc1NC(=O)NCc1ccncc1 across the screens: 15.3 | 7.8 | 2661 | 4.1 | 11.2 | -2.0 | -3.1
Cc1ccc(NC(=O)CC(NCC2CCCO2)C(=O)O)cc1C (stereo not given) across the screens: 6.3 | 11.9 | 4521 | 2.9 | -11.4 | -6.5 | -1.1

Not a hit list; about 4% have a hit in one of these screens.
